Bioassay records deposited in PubChem BioAssay by Southern Research Institute.
Mtb H37Rv: Mycobacterium tuberculosis H37Rv growth inhibition, cell based, confirmatory dose response (AID 1949); most inactive calls were filed without a number and no value below 0 was filed; inhibition, % at 10 µg/mL, or IC50 in µg/mL where a hit was titrated; 100,000 tested, 1.6% active;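 active = confirmed in a dose series; inconclusive = about 50% or more but not retested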;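 also: bacteria grown 7 days with compound before Alamar blue readout; 0% = untreated bacteria and 100% = reference antibiotic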
* hit, by the source's call. The list is partial; count on the stated rates, not on these rows.

How did CC1CC(C)CN(c2ncnc3sc4c(c23)CCCC4)C1 (stereo not drawn) do in these assays?
Mtb H37Rv: inactive

What do the screens show for `CN1C(=O)C(O)(CC(=O)c2ccccn2)c2cc(Br)ccc21` (stereo not drawn)?
Mtb H37Rv: 1%

Results for C=C(C)CSc1nnc2[nH]c(=O)cc(N)n12 ?
Mtb H37Rv: inactive

How did O=C(NN1CCOCC1)c1cc(-c2ccccn2)nc2ccc(Cl)cc12 do in these assays?
Mtb H37Rv: inactive

How did COc1ccccc1C(=O)Nc1c(C)cc(Br)cc1C do in these assays?
Mtb H37Rv: inconclusive

How did O=C(Nc1ccc(Br)c2cccnc12)c1ccccc1Cl do in these assays?
Mtb H37Rv: inactive

How did CCc1ccccc1N(CC(=O)Nc1cccc(C(F)(F)F)c1)S(C)(=O)=O do in these assays?
Mtb H37Rv: inactive

How did COc1ccc(-n2c(SCC(=O)Nc3cc(C)ccc3OC)nc3ccccc3c2=O)cc1 do in these assays?
Mtb H37Rv: 1%

How did O=C(Nc1cccc(C(F)(F)F)c1)N1CCN(c2ccccn2)CC1 do in these assays?
Mtb H37Rv: inactive

How did O=S(=O)(c1ccccc1)N1CCc2cc(Br)ccc21 do in these assays?
Mtb H37Rv: inactive

Reprinted from the part before: 3 compounds, then new ones.
How did COc1ccc(-n2c(SCC(=O)Nc3cc(C)ccc3OC)nc3ccccc3c2=O)cc1 do in these assays?
Mtb H37Rv: 1%

How did O=C(Nc1cccc(C(F)(F)F)c1)N1CCN(c2ccccn2)CC1 do in these assays?
Mtb H37Rv: inactive

How did O=S(=O)(c1ccccc1)N1CCc2cc(Br)ccc21 do in these assays?
Mtb H37Rv: inactive

Results for CCOC(=O)C1=C(c2ccccc2)NC(SCC(=O)Nc2ccc(C)cc2)=C(C#N)C1c1ccco1 (stereo not drawn) ?
Mtb H37Rv: 0%

Results for O=C(C1CCCN(S(=O)(=O)c2ccc([N+](=O)[O-])cc2)C1)N1CCCCC1 (stereo not drawn) ?
Mtb H37Rv: inactive

How did COc1c(C)cc(Br)cc1C(=O)NC(=S)Nc1ccccc1N1CCCCC1 do in these assays?
Mtb H37Rv: inactive

Results for COC(=O)c1sccc1NC(=O)C1C2C=CC(C2)C1C(=O)O (stereo not drawn) ?
Mtb H37Rv: inactive

How did C=CCNC(=S)N1CCNC(=O)C1CC(=O)Nc1ccc(OCC)cc1 (stereo not drawn) do in these assays?
Mtb H37Rv: inactive

Results for CCOc1ccc(C(=O)Nc2ccc(Cl)cc2C)cc1OCC ?
Mtb H37Rv: inactive

Results for O=C(CN1C(=O)c2ccccc2C1=O)Nc1ncc([N+](=O)[O-])s1 ?
Mtb H37Rv: inactive

How did CCOC(=O)CSc1nc(-c2ccccc2)nc2sc3c(c12)CCCC3 do in these assays?
Mtb H37Rv: 4%

Results for CCc1ccccc1NC(=O)CC1NCCNC1=O (stereo not drawn) ?
Mtb H37Rv: inactive

Results for CCOc1cc(C(=S)N2CC(C)OC(C)C2)cc(I)c1OCC(=O)N1CCCC1 (stereo not drawn) ?
Mtb H37Rv: inactive

How did O=C1N/C(=N/N=C/c2cccs2)SC1Cc1ccc(Cl)cc1 (stereo not drawn) do in these assays?
Mtb H37Rv: inactive

How did Cc1ccc(C(=O)Nc2ccc(C(=O)NCC3CCCO3)cc2)cc1 (stereo not drawn) do in these assays?
Mtb H37Rv: inactive

How did CCOc1ccccc1NC(=O)c1c(F)c(F)c(F)c(F)c1F do in these assays?
Mtb H37Rv: inconclusive

How did CCn1c(COc2ccccc2Cl)nnc1SCC(=O)Nc1nc(C)cs1 do in these assays?
Mtb H37Rv: inactive

What do the screens show for `COc1ccc(OCC(=O)Nc2ccc(NC(=O)c3ccco3)cc2)cc1`?
Mtb H37Rv: inactive

Results for COC(=O)c1c(-c2ccc(Cl)cc2)csc1NC(=O)c1ccc(OC)c(OC)c1 ?
Mtb H37Rv: 1%

Results for CCCc1nnc(NC(=O)C(c2ccccc2)c2ccccc2)s1 ?
Mtb H37Rv: inactive

Results for COc1ccc(NC(=O)C2C3C4CCC(C4)C23)c(OC)c1 (stereo not drawn) ?
Mtb H37Rv: inactive

How did O=C(c1cccc(F)c1)N1CCN(Cc2ccccn2)CC1 do in these assays?
Mtb H37Rv: inactive

Results for NC(=O)CSc1nc2ccccc2n1Cc1ccccc1F ?
Mtb H37Rv: inactive

How did CCC(C)c1ccc(NC(=O)c2nn(C)cc2Cl)cc1 (stereo not drawn) do in these assays?
Mtb H37Rv: inactive

How did Cn1ncc2c1ncn1c(-c3ccc(Cl)cc3Cl)nnc21 do in these assays?
Mtb H37Rv: inactive

Results for CCOC(=O)C12C(=O)OC(C)(C)C1C2(C)C(=O)c1ccc(Br)cc1 (stereo not drawn) ?
Mtb H37Rv: 1%

Results for Cc1cc(=O)oc2cc(OC(=O)c3ccccc3F)ccc12 ?
Mtb H37Rv: inactive

Results for O=C(NC1CCCCC1)c1ccc(COc2ccc(Cl)cc2)cc1 ?
Mtb H37Rv: inactive

How did Cc1cccc(CSc2nnc(NC(=O)COc3ccc(F)cc3)s2)c1 do in these assays?
Mtb H37Rv: 1%

Results for CCC(C)c1ccccc1NC(=O)COc1cc(C)cc(C)c1 (stereo not drawn) ?
Mtb H37Rv: inactive

How did COc1cc(C)ccc1OCCn1cnc2ccccc21 do in these assays?
Mtb H37Rv: inactive

Results for Cc1cc(Cl)ccc1NC(=O)CCc1ccc(S(=O)(=O)NC(C)C)cc1 ?
Mtb H37Rv: 2.9µg/mL*

What do the screens show for `COc1ccc(C(=O)c2oc3ccccc3c2NC(=O)C(C)C)cc1Cl`?
Mtb H37Rv: inactive

Results for Cc1ccc(S(=O)(=O)c2ccc(Cl)cc2)cc1S(=O)(=O)N1CCOCC1 ?
Mtb H37Rv: inactive

What do the screens show for `Cc1cc(C)cc(-n2c(-c3ccccc3Cl)n[nH]c2=S)c1`?
Mtb H37Rv: inactive

How did CC(=O)NC(=S)Nc1ccc(F)cc1 do in these assays?
Mtb H37Rv: inactive

Results for COc1ccc(OCCNS(=O)(=O)c2ccc(F)cc2)cc1 ?
Mtb H37Rv: 4%

What do the screens show for `CCc1ccccc1OCC(=O)Nc1cc([N+](=O)[O-])ccc1OC`?
Mtb H37Rv: inactive

How did O=C1c2cccc3cccc(c23)C(=O)N1c1ccncc1 do in these assays?
Mtb H37Rv: inactive

Results for COC(=O)Cc1c(C)c2ccc(OCc3ccc4ccccc4c3)cc2oc1=O ?
Mtb H37Rv: inactive

Results for COc1cc(CNn2cn[nH]c2=S)ccc1OCC(=O)NC(C)(C)C ?
Mtb H37Rv: inactive

How did Cc1ccc(S(=O)(=O)C(C(=O)c2ccccc2)c2ccc(Cl)cc2)cc1 (stereo not drawn) do in these assays?
Mtb H37Rv: 8%

What do the screens show for `CCCNC(=O)Cn1nc(C(F)(F)F)c2c1CCCC2`?
Mtb H37Rv: inactive

What do the screens show for `COc1ccc(-c2csc(NC(=S)NC(=O)c3ccc(C(C)(C)C)cc3)n2)cc1OC`?
Mtb H37Rv: 11%

How did CCn1c(CNC(=O)c2cccc(C)c2)n[nH]c1=S do in these assays?
Mtb H37Rv: inactive

What do the screens show for `COc1cc(NC(=O)c2ccc(C(C)C)cc2)c(OC)cc1Cl`?
Mtb H37Rv: 28%

Results for CN(C(=S)NC(=O)c1ccco1)c1ccccc1 ?
Mtb H37Rv: inactive

Results for Cc1cc(C)cc(OC(=O)c2ccccc2[N+](=O)[O-])c1 ?
Mtb H37Rv: inactive

Results for O=C1CC(C(=O)NC2CCCCC2)C(c2ccccc2)O1 (stereo not drawn) ?
Mtb H37Rv: 2%

What do the screens show for `COc1ccc(C2=NOC(CN3C(=O)c4ccccc4S3(=O)=O)C2)cc1` (stereo not drawn)?
Mtb H37Rv: inactive

What do the screens show for `O=C(Nc1ccccc1Cc1ccccc1)c1cnccn1`?
Mtb H37Rv: inactive

How did O=C(NCc1ccccc1)N1CCOCC1 do in these assays?
Mtb H37Rv: inactive

How did Cc1ccc(NS(=O)(=O)c2ccc(NC(=O)C3CCCCC3)cc2)c(C)c1 do in these assays?
Mtb H37Rv: inactive

Results for COC(=O)c1ccc(NC(=O)CSc2nnc(-c3ccc(Br)cc3)o2)cc1 ?
Mtb H37Rv: 5.8µg/mL*

What do the screens show for `CCOc1ccc(NC(=O)NCc2ccc(S(N)(=O)=O)cc2)cc1`?
Mtb H37Rv: inactive

Results for CC1(C)CC(O)(C2(O)CC(C)(C)NC(C)(C)C2)CC(C)(C)N1 ?
Mtb H37Rv: 1%

Results for Cc1ccc2c(c1)c1c(n2CC(O)CN2CCOCC2)C(=O)CCC1 (stereo not drawn) ?
Mtb H37Rv: inactive

What do the screens show for `O=S(=O)(O)c1ccc2ccc(O)cc2c1`?
Mtb H37Rv: 3%

Results for Cc1nnc2n(-c3cccc(Cl)c3)c(=O)c3c4c(sc3n12)COC(C)(C)C4 ?
Mtb H37Rv: inactive

Results for O=C(NC(=S)Nc1ccccc1N1CCCC1)c1ccccc1[N+](=O)[O-] ?
Mtb H37Rv: inconclusive

How did Cc1c(NS(=O)(=O)N2CCCCC2)c(=O)n(-c2ccccc2)n1C do in these assays?
Mtb H37Rv: inactive

Results for O=C(CSc1n[nH]c(=O)[nH]c1=O)c1ccc(Cl)cc1 ?
Mtb H37Rv: inactive

What do the screens show for `COc1ccc(NC(=S)NCCCn2ccnc2)cc1`?
Mtb H37Rv: inactive

What do the screens show for `COc1cccc(-c2nnc3c4c5c(sc4ncn23)CC(C)CC5)c1` (stereo not drawn)?
Mtb H37Rv: inactive

How did Cc1ccc(S(=O)(=O)N2CCN(C(=O)N3CCOCC3)CC2)cc1 do in these assays?
Mtb H37Rv: inactive

How did COc1cc2c(cc1OC)C(c1ccc(-c3ccc(Cl)c(Cl)c3)o1)=NCC2 do in these assays?
Mtb H37Rv: 7µg/mL*

What do the screens show for `O=S(=O)(CC(CN1CCCCC1)N1CCCCC1)c1ccc2ccccc2c1` (stereo not drawn)?
Mtb H37Rv: inconclusive

How did Cc1ccccc1CSc1nnc(NC(=O)Nc2ccccc2F)s1 do in these assays?
Mtb H37Rv: inactive

Results for Cc1ccc(C(=O)Nc2sc(C)c(C)c2C(=O)OC(C)C)cc1 ?
Mtb H37Rv: inactive

What do the screens show for `CCOCc1cnc(C)nc1NC(C)=O`?
Mtb H37Rv: 1%

How did CC(=O)Nc1ccc(C(=O)Nc2cc(Cl)ccc2Cl)cc1 do in these assays?
Mtb H37Rv: 6%

How did COC(=O)c1ccccc1NC(=O)CSCC(=O)Nc1ccccc1OC do in these assays?
Mtb H37Rv: inactive

What do the screens show for `Cc1cc(=O)[nH]c(Nc2ccc(F)cc2)n1`?
Mtb H37Rv: inactive

The last six records of the part before come first, to join the parts.
How did Cc1ccccc1CSc1nnc(NC(=O)Nc2ccccc2F)s1 do in these assays?
Mtb H37Rv: inactive

Results for Cc1ccc(C(=O)Nc2sc(C)c(C)c2C(=O)OC(C)C)cc1 ?
Mtb H37Rv: inactive

What do the screens show for `CCOCc1cnc(C)nc1NC(C)=O`?
Mtb H37Rv: 1%

How did CC(=O)Nc1ccc(C(=O)Nc2cc(Cl)ccc2Cl)cc1 do in these assays?
Mtb H37Rv: 6%

How did COC(=O)c1ccccc1NC(=O)CSCC(=O)Nc1ccccc1OC do in these assays?
Mtb H37Rv: inactive

What do the screens show for `Cc1cc(=O)[nH]c(Nc2ccc(F)cc2)n1`?
Mtb H37Rv: inactive

Results for COC(=O)c1ccc(OCC(O)Cn2cnc3ccccc32)cc1 (stereo not drawn) ?
Mtb H37Rv: 1%

How did CC(=O)Nc1ccc(-c2nc(C)c(C(C)=O)n2O)cc1 do in these assays?
Mtb H37Rv: inactive

What do the screens show for `CCc1cc(C(=O)OC)c(NC(=S)NC(C)c2ccc(OC)c(OC)c2)s1` (stereo not drawn)?
Mtb H37Rv: 4%

Results for COc1ccc(OC)c(NC(=O)c2c(NC(=O)CNCc3ccccc3)sc3c2CCC3)c1 ?
Mtb H37Rv: 1%

Results for CCC1(C)Cc2c(sc3nc(SC)nc(SCC(=O)OC)c23)CO1 (stereo not drawn) ?
Mtb H37Rv: inactive

Results for Cc1cc(Cl)ccc1NC(=O)c1ccccc1-c1ccccc1 ?
Mtb H37Rv: 44%

How did COc1cc(CN2CCC(N3CCCC3)CC2)cc(OC)c1OC do in these assays?
Mtb H37Rv: inactive

Results for CCOCCC(=O)NCC1CCCO1 (stereo not drawn) ?
Mtb H37Rv: inactive

How did O=C(Nc1cc(Cl)ccc1OC(=O)c1cccs1)c1cccs1 do in these assays?
Mtb H37Rv: inactive

What do the screens show for `COC(=O)c1ccc(NC(=O)c2c(NCc3ccc(OC)c(OC)c3)sc3c2CCCC3)cc1`?
Mtb H37Rv: inactive

How did O=C(Nc1nccs1)c1ccc([N+](=O)[O-])cc1Cl do in these assays?
Mtb H37Rv: inactive

How did CCCn1cc2c(c1-c1ccccc1)c(=O)n(C)c(=O)n2C do in these assays?
Mtb H37Rv: inactive

Results for CCCC(CCC)C(=O)Nc1c[nH]c(=O)[nH]c1=O ?
Mtb H37Rv: inactive

What do the screens show for `C=CCn1c(COC)nc2ccccc21`?
Mtb H37Rv: inactive

How did O=C(Nc1ccc(Cl)cc1F)c1ccncc1 do in these assays?
Mtb H37Rv: 0%

How did CC(C(=O)OCc1ccccc1Cl)n1cnc2scc(-c3ccccc3)c2c1=O (stereo not drawn) do in these assays?
Mtb H37Rv: inactive

How did Cc1cccc(Nc2ncnc3ccc(C)cc23)c1 do in these assays?
Mtb H37Rv: inactive

How did CC(Oc1ccccc1F)C(=O)N1CCN(c2cccc(Cl)c2)CC1 (stereo not drawn) do in these assays?
Mtb H37Rv: 5%

Results for Cn1c(=O)c2c(ncn2CC2CC2)n(C)c1=O ?
Mtb H37Rv: inactive

What do the screens show for `COc1ccc(C(=O)CSc2nnc(CCC(=O)Nc3ccc(C)c(Cl)c3)n2C)cc1`?
Mtb H37Rv: 2%

Results for CS(=O)(=O)N1N=C(c2ccc3nccnc3c2)CC1c1ccccc1 (stereo not drawn) ?
Mtb H37Rv: inactive

Results for COC(=O)c1ccc(NC(=O)C2Cc3ccccc3CN2S(=O)(=O)c2cccs2)cc1 (stereo not drawn) ?
Mtb H37Rv: inactive

How did O=C(CSc1nnnn1-c1ccccc1)N1CCc2ccccc21 do in these assays?
Mtb H37Rv: inactive
